Tgondii IFNg: blocks Toxoplasma gondii growth in the presence of IFN-gamma; Toxoplasma gondii growth in IFN-gamma-treated host cells; stronger effect = lower value; reference of the scale not given here; activity change, negative = inhibition, %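 (about 20 µM by stock and volumes)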; hit rate 3.8% among 69,000;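 active means below -70%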;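 further: host cells are HeLa cells infected with Toxoplasma gondii; parasite growth read as luciferase light; one replicate is shown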
The depositor's hits bear a star; i = inactive; & = joins results of further samples.

item	SMILES	Tgondii IFNg
1	COc1ccc2c3c(n(C)c2c1)[C@@H](CO)N(C(=O)NC1CCCCC1)CC31CCN(C)CC1	415
2	CNC[C@H]1OCCCC[C@@H](C)Oc2ccc(NC(=O)Nc3ccc(OC)cc3)cc2C(=O)N([C@H](C)CO)C[C@@H]1C	359
3	COCC(=O)N1CCC2(CC(C(=O)NCc3cnc(C)cn3)=NO2)C1 (stereo unspecified)	-6
4	Cc1ccc(NC(=O)N2CCC3(CC2)Nc2cc(F)ccc2-n2cccc23)c(Cl)c1	i
5	Cc1nc(N2CCCC(NC(=O)c3cccc4c3C(=O)N(C)C4)C2)[nH]c(=O)c1C (stereo unspecified)	-2
6	Cc1cccc(C)c1NC(=O)C(=O)NCCc1sc(-c2ccc(F)cc2)nc1C	-21
7	Cc1ccccc1CNC(=O)c1c(O)c2cccnc2n(-c2cccc(F)c2)c1=O	185
8	CN(C[C@H]1N[C@@H](CO)[C@H]1c1ccc(-c2cccc(F)c2)cc1)C(=O)CC1CC1	-12
9	CCc1ccc(NC(=O)N2C[C@H]3C[C@H](C(=O)NCC4CC4)[C@@H](C2)O3)cc1	0
10	O=S(=O)(NC(=S)Nc1ccc(Cl)c(Cl)c1)c1ccccc1	-10
11	Cc1ccc2c(c1C)-n1cccc1C1(CCN(C(=O)c3ccc(Br)o3)CC1)N2	-5
12	Cc1ccc2c(c1C)-n1cccc1C1(CCN(S(=O)(=O)c3cn(C)cn3)CC1)N2	9
13	COc1cccc(N2CC(=O)N(NC(=O)NC3CCCCC3)CC2=O)c1	-27
14	COc1ccc(-n2nc(C(=O)NCc3ccccn3)nc2-c2ccccc2)cc1	40
15	CC(C)Oc1cccc(F)c1-c1csc(C(N)=O)c1	-3
16	Cc1cccc(NC(=O)Cn2c(=O)ccc3cc(S(=O)(=O)N4CCCC4)ccc32)c1	-53
17	COc1ccc2c3c(n(C)c2c1)[C@H](CO)N(Cc1cccnc1)CC31CCN(C(=O)NC(C)C)CC1	i
18	Cc1ccc(NS(=O)(=O)c2ccc(N3C(=O)c4ccccc4C3=O)cc2)cc1	-1
19	COCC(=O)N1CC[C@@H](O)[C@@H]1Cc1cnn(C)c1	-34
20	Cc1cc(C(F)(F)F)nn1CC(=O)Nc1sc2c(c1C#N)CCC(C(C)(C)C)C2 (stereo unspecified)	3
21	CC(=O)N1CCC2(CC1)OC(=O)C(C)=C2C(=O)NCCCN1CCCCC1C (stereo unspecified)	-6
22	c1cnn(CCC2CCN(c3ncnc4c3CCNC4)CC2)c1	4
23	COCCN(C[C@H]1[C@H](c2ccccc2)[C@@H](CO)N1C(=O)C1CC1)C(C)=O	7
24	CC(C)(O)C1CCN(C(=O)c2cc(COc3ccccc3F)[nH]n2)CC1	-9
25	COCCN1CCCC(O)(CNCc2ccccc2C(F)(F)F)C1=O (stereo unspecified)	3
26	Cc1onc(-c2ccccn2)c1C(=O)NCCc1c[nH]c2ccc(Cl)cc12	-7
27	O=C1CCc2cc(NC(=O)C(F)(F)F)ccc2N1	-3
28	CCN1C(=O)C2(CCOCC2)c2cc(Nc3ncc(F)cn3)ccc21	4
29	CC(=O)C(Sc1nccc(-c2cccnc2)n1)C(C)=O	-58
30	Cc1ccc(-n2cc(CNCCc3cnccn3)c(-c3cccc(C)c3)n2)cc1	-13
31	CN(C(=O)c1ccccc1C(=O)N(C)C1CCS(=O)(=O)C1)C1CCS(=O)(=O)C1 (stereo unspecified)	10
32	COc1cccc(NC(=O)Nc2ccc3c(c2)C(=O)N(C)C[C@@H](OC)[C@H](C)CN(CC2CC2)[C@@H](C)CO3)c1	124
33	Cc1nn(CCO)cc1CN(C)Cc1cc(-c2ccccc2)no1	7
34	CCS(=O)(=O)N1CC2(C1)[C@H](c1ccccc1)[C@@H](CO)N2Cc1ccccn1	37
35	COc1cccc(NC(=O)N2CCc3nc(-c4ccc(C)cc4)sc3C2)c1	-121*
36	COc1ccc(C(c2cc(C(C)(C)C)c(O)c(C(C)(C)C)c2)N2CCOCC2)cc1 (stereo unspecified)	-42
37	COc1cc(Nc2nc(-c3nnc(-c4ccc(C)cc4)o3)nc3ccccc23)cc(OC)c1	-3
38	COc1ccc(CN2C[C@H]3[C@@H](C(=O)NC4CCC4)CCS(=O)(=O)[C@H]3C2)cc1	137
39	CC(C)N1CCc2cc(CN3CCN4C(=O)CNC(=O)C4C3)ccc21 (stereo unspecified)	5
40	COc1ccc(C2Nc3ccccc3C3CC(c4ccc(F)cc4)=NN32)cc1 (stereo unspecified)	154
41	O=C(Nc1ccccc1)OCc1cccc(COC(=O)Nc2ccccc2)c1F	-82*
42	Cn1c(C(=O)N(C2CCCCC2)C2CCCCC2)cc2sccc21	59
43	Cc1cccc(Oc2ccc(C(=O)NCC3(O)CCCNCC3)cc2)c1 (stereo unspecified)	-44
44	CC(=O)c1csc(NC(=O)c2cnc(C(C)(C)C)nc2)n1	407
45	COc1ccc(S(=O)(=O)N(C)C[C@H]2Oc3c(cccc3N(C)C)C(=O)N([C@@H](C)CO)C[C@H]2C)cc1	53
46	O=C(OCc1ccccn1)c1ccc(COc2ccccc2Cl)o1	13
47	Cc1ccc(C2=NC3(CCN(CC(=O)NCc4ccc5c(c4)OCO5)CC3)NC2=O)cc1C	28
48	Cc1cccc(S(=O)(=O)N2CCn3cnc(COc4cccnc4)c3C2)c1	27
49	O=C(C1CCOCC1)N1CC[C@@H]2[C@@H](CO)Nc3ccc(-c4cccc(F)c4)cc3[C@@H]21	15
50	CCCN1CCC2(CC1)CN(Cc1ccc3c(c1)OCO3)[C@H](CO)c1[nH]c3cc(OC)ccc3c12	474

Further compounds
item	SMILES	Tgondii IFNg
51	COc1cc(Nc2nc(SCc3ccc(F)cc3)nc3ccccc23)cc(OC)c1	-24
52	NC(=S)c1sccc1Br	40
53	COc1cc(C(=O)N2CCC3(CC2)NC(=O)c2ccc(Cl)cc2N3)cc(OC)c1OC	132
54	COc1ccc(C#Cc2ccc3c(c2)[C@@H]2[C@@H](CCN2C(=O)c2cnccn2)[C@@H](CO)N3)cc1	0
55	O=C(Cc1cccc(F)c1)N1CCC2(CC1)Nc1ccccc1-n1cccc12	29
56	O=C(O)c1cc2cc(Cl)ccc2[nH]1	18
57	CCc1ccc(NC(=O)N2CCC3(C2)CN(c2ccsc2)C(=O)CN3C)cc1 (stereo unspecified)	17
58	CCOCC1c2c(cnn2C)CCN1S(=O)(=O)Cc1ccccc1 (stereo unspecified)	4
59	COCC1CCC2(CCN(C(=O)COc3ccc(F)cc3)CC2)N1C (stereo unspecified)	-2
60	O[C@H]1CCN(c2ccc(-c3nc(-c4cccc(C(F)(F)F)c4)no3)cn2)C1	-26
61	N#CC(Cc1ccc(O)cc1)c1ccc(O)cc1 (stereo unspecified)	0&20
62	CCCCc1cc(C(=O)Nc2ccc3c(c2)CCN3C(C)=O)n[nH]1	10
63	C1=CC[C@H]2CN(c3ncnc4[nH]ccc34)C[C@H]2C1	-53
64	CO[C@@H]1CN(C)C(=O)c2ccc(NC(=O)c3cccc(F)c3)cc2OC[C@H](C)NC[C@H]1C	276
65	Cc1[nH]c2c(C)ccc(C)c2c1CC(=O)Nc1cnc2n1CCCC2	-6
66	C[C@@H]1CN([C@H](C)CO)C(=O)c2cc(NC(=O)Nc3ccccc3)ccc2O[C@@H]1CN(C)Cc1ccccc1	-3
67	COc1cccc(CCNC(=O)C2c3c(ncn3C(C)C)CCN2S(C)(=O)=O)c1 (stereo unspecified)	11
68	Cc1nc(CN(C)C(=O)C(C)n2ccnc2C(C)C)cs1 (stereo unspecified)	16
69	COCCN(Cc1ccncc1)Cc1cccs1	-11
70	COc1ccccc1NC(=O)N1CCN(Cc2nc(-c3cccc(Cl)c3)oc2C)CC1	4
71	O=C(Nc1cccnc1)c1cc(-c2cnc(N3CCCC3)nc2)cn1CC1CC1	-2
72	COc1ccc(-c2nnc(NC(=O)[C@@H]3C[C@@H]4C=C[C@H]3C4)s2)cc1OC	-18
73	Cc1nn(C)c2c1S(=O)(=O)N=C(SCc1c(F)cccc1Cl)S2	4
74	CCCc1cnc(C)nc1N1CCC(O)(C(=O)O)CC1	-3
75	Cc1noc(C)c1S(=O)(=O)Nc1ccc2c(c1)C(=O)N([C@@H](C)CO)C[C@@H](C)[C@H](CN(C)C(=O)Nc1cccc3ccccc13)OCCCC[C@H](C)O2	30
76	Cc1ccsc1CCNC(=O)C1(Oc2cccnc2C)CCNCC1	5
77	Cc1nnsc1CN(C)C(=O)c1cc(Cn2ccc3ccccc32)[nH]n1	20
78	C#CCOC(=O)Nc1ccccc1OC	-53
79	COc1ccc2c3c(n(C)c2c1)[C@@H](CO)N(C(=O)Nc1ccc(F)cc1)CC31CN(C(=O)c2cccnc2)C1	-51
80	COCCN1CCC2(CC1)CC(NC(=O)c1cnc[nH]1)c1ccccc1O2 (stereo unspecified)	-12
81	COc1ccccc1-c1nc(C)c(-c2ccc(SCc3cccc(C)c3)nn2)s1	1
82	Cc1ccc(C)n1/N=C1/NC(=O)CS1	8
83	Cc1cc(C)n(Cc2nc(-c3ccc(NC(=O)c4c(F)cccc4F)cc3)oc2C)n1	15
84	Cc1ccc(Cl)cc1-n1c(C2CCC2)n[nH]c1=O	-5
85	O=C(CN1CCOCC1)N1C[C@@H]2N[C@H](C1)C2c1ccc(/C=C/c2ccccc2)cc1 (stereo partly specified)	-42&-19
86	O=c1[nH]cc(Nc2ccccc2)c(=O)[nH]1	27
87	C[C@H](CO)N1C[C@H](C)[C@@H](CN(C)C(=O)CCC(F)(F)F)OCc2cnnn2CCCC1=O	66
88	CCN1c2cc(C)ccc2-n2cccc2C12CCN(C(=O)Nc1ccc(F)cc1)CC2	-96*
89	Cc1nc(NC(C)C)nc2c1CN(Cc1cccs1)CC2	5
90	CN1CCC2(CC1)COc1ccccc1S(=O)(=O)N(CC1CC1)C2	58
91	Fc1cccc(-c2ccc(C3[C@H]4CNC[C@@H]3N4CC3CCOCC3)cc2)c1 (stereo partly specified)	-18
92	CSc1ccc2c(c1)CCN(C(=O)Nc1nc(C)n(C)n1)C2	16
93	CN(Cc1nc(-c2cccnc2)no1)Cc1cccs1	15
94	Cc1cc(N2CCCN(Cc3ccc(-n4cccn4)cc3)CC2)ccn1	-10
95	O=C(NC1CCCC1)N1CCCCN2[C@H](CO)[C@@H](c3ccc(-c4cccnc4)cc3)[C@@H]2C1	-31
96	Cc1noc(C)c1CN1CC[C@H](O)[C@@H]1Cc1ccccc1	-4
97	Cc1ccc2c(c1C)-n1cccc1C1(CCN(C(=O)c3cccnc3)CC1)N2	24
98	COc1cc([N+](=O)[O-])ccc1NC(=O)N1CCC2(CC1)Nc1cc(F)ccc1-n1cccc12	i
99	O=C(C1CCCCC1)N1CC2(C1)[C@H](c1ccccc1)[C@H](CO)N2C(=O)c1cccnc1	-55
100	COc1ccc2oc(=O)c(C(=O)Nc3ccccc3-c3ccccc3)cc2c1	0

Next results follow.
item	SMILES	Tgondii IFNg
101	O=c1[nH]cc(-c2ccccc2)cc1CNc1cccc2ncccc12	185
102	O=C(CCCCCNc1nc(=S)[nH]c2ccccc12)N1CCC(O)(c2cccc(C(F)(F)F)c2)CC1	-53
103	CCCN(CCC)c1nc(C(=O)OCC)nc2ccccc12	-35
104	CCOC(=O)C1CCCN(C(=O)c2ccc(-c3csc(CC)n3)cc2)C1 (stereo unspecified)	-25
105	Cc1ccccc1NC(=O)C1(C)Cc2ccccc2C(=O)O1 (stereo unspecified)	-6
106	O=C(c1ccc[nH]1)N1Cc2nccn2CC(CN2CCCC2)C1 (stereo unspecified)	-6
107	COc1ccc(S(=O)(=O)N2C[C@H](O)COC[C@H]3O[C@H](CC(=O)N[C@@H]4CCN(Cc5ccccc5)C4)CC[C@@H]32)cc1	-21
108	O=C(c1ccoc1)N1CCC(N2CCCC(C(=O)N3CCOCC3)C2)CC1 (stereo unspecified)	1
109	O=C(c1n[nH]c2c1CCCC2)N1CCCC(n2nc(-c3ccco3)ccc2=O)C1 (stereo unspecified)	-4
110	CN(C)C(=O)C[C@H]1C=C[C@H](NC(=O)c2ccc(F)cc2)[C@@H](CO)O1	-21
111	CCOc1ccccc1NC(=O)c1nnn(Cc2nc(-c3ccccc3C)oc2C)c1C	36
112	CS(=O)(=O)N1Cc2cc(C(=O)O)nc(-c3cccc(-c4ccccc4F)c3)c2[C@H]1CCO	1
113	CCn1ccc(-c2n[nH]c(=O)n2C2CCCC2)n1	-6
114	Cc1nc2ccc(Cl)cn2c1C(=O)N1CC2(CCNCC2)CC1C(=O)O (stereo unspecified)	-6
115	CCOc1ccccc1NC(=O)Cn1c(=O)cc(C(=O)NC)c2ccccc21	2
116	Cc1cc(N2CCCN(Cc3cnc(N(C)C)s3)CC2)ccn1	-1
117	O=C(C[C@@H]1CC[C@@H]2[C@H](COC[C@H](O)CN2Cc2ccc(Oc3ccccc3)cc2)O1)N1CCN(c2ccccc2)CC1	-25
118	CC(C)C#Cc1ccc([C@H]2[C@@H](C#N)N(C(=O)c3cccc(F)c3)[C@@H]2CO)cc1	-37
119	Cn1nnc2cc(C(=O)N3CCC(CO)(CCCc4ccccc4)CC3)ccc21	-13
120	CCOC(=O)c1c(NC(=O)c2ccco2)sc(C)c1C	-3

High-throughput results as filed in PubChem.

A portion of the library; the hit share may differ from the screen's.
